# Screening results (PubChem BioAssay)
# Beta cell apopt – blocks beta cell apoptosis | actives 0.8% (n = 300,000) | INS-1E cytokine-induced death, ATP luminescence, 48 h; percent of positive-control rescue, neutral wells zero | protection from apoptosis, % (no concentration beside the values);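 active = all replicates at 75% or more, or half of them and the mean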;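 also: 0% = cytokine-treated negative control wells and 100% = positive control rescue; higher means more ATP so stronger rescue from cytokine killing; wells of about 40 µL received 100 nL stock; the first replicate is given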
# A1 inh – inhibitors of the anti-apoptotic protein A1, read as caspase activation | MEF A1-2A-BIM cells, Caspase-Glo 3/7 luminescence, 3 h; percent of clofoctol response, vehicle zero | caspase activation, % (no concentration beside the values) | actives 0.066% (n = 330,000);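 active = over half of replicate activation scores above 10%, or exactly half above 10 with the replicate mean above 10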;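 also: wells of about 30 µL received 50 nL stock; many hits fall short of the cut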
# MLL AF4-AF9 inh – MLL-AF4/AF9 protein interaction inhibition. actives 0.47% (n = 350,000). P42568. inhibition, % at 10 µM. AlphaScreen, biotin-AF4 peptide binding to FLAG-AF9;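 active = every replicate reaching a set inhibition limit, whatever the replicate mean, cut at about 25% in these data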;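 also: 0% = plate neutral control median and 100% = total signal loss; the record names both 10 and 1 µM as test concentration; the first replicate is given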
# Target sequence (P42568 whole entry, looked up): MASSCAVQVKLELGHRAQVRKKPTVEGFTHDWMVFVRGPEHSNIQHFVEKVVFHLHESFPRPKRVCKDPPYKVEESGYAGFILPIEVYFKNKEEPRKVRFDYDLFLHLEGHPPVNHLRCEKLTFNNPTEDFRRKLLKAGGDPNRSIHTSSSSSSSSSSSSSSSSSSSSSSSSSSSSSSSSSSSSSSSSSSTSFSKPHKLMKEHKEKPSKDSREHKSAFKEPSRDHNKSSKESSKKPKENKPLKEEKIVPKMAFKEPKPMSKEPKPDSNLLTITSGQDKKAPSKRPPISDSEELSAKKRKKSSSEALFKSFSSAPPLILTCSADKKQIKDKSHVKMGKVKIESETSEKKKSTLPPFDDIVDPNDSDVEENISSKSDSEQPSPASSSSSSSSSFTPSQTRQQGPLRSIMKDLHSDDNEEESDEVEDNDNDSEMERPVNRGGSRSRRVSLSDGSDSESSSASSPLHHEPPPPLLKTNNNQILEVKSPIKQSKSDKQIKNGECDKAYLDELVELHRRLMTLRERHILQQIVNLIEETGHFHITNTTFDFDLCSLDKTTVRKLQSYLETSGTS
# rRNA inh HTS – inhibitors of bacterial rRNA selective over humanized ribosomes; E. coli WT GFP vs humanized-ribosome RFP mutants, fluorescence, 24 h; stronger effect = lower value; DMSO median 0, no signal -100; GFP signal change (wild-type ribosome), % (concentration not given with the values); actives 1.6% (n = 350,000); AID 720706;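 active = significant combined selectivity score with lowered wild-type GFP, culture density cut under 30%, mutant RFP and density less affected; inactive = any of these conditions unmet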; also: one replicate is shown; some compounds called inactive have numbers as strong as hits
# T cruzi inh – T. cruzi replication inhibition. actives 1.4% (n = 300,000). AID 1885. T. cruzi beta-gal in NIH3T3, luminescence, 90 h. inhibition, % (test concentration not listed);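 active = mean inhibition across valid replicates above about 55%, limit read from the data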;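 also: signal also drops with host cell toxicity which is not excluded here; 0% = plate median of DMSO wells and 100% = zero luminescence signal; higher percent means less beta-gal luminescence so fewer parasites; stock transfer was 50 nL into about 50 µL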
# FGF22 binding – shifts melting point of recombinant human FGF22 | recombinant FGF22 thermal shift, SYPRO orange fluorescence; percent of sucrose octasulfate shift, DMSO zero | calls only at 9.99 µM | actives 1.5% (n = 340,000) | AID 651658;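 active = melting point raised past a set limit in the mean and every replicate; three in four hits are not shown here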
# Target sequence (Q9HCT0 whole entry, looked up): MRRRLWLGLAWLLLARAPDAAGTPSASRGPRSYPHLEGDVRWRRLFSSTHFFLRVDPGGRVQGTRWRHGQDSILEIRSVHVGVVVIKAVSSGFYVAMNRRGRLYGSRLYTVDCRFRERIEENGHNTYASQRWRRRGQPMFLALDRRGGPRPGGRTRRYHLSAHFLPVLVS
# UCH37 inh – inhibitors of human deubiquitinating enzyme UCH37 | AID 588478 | purified proteasome/UCH37, Ub-AMC cleavage fluorescence | actives 0.33% (n = 330,000) | inhibition, % (test concentration not listed);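 active = mean of two replicates above 20%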;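 also: 0% = compound-free wells with enzyme and 100% = wells lacking proteasome; stock transfer was 100 nL into about 20 µL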
# Target sequence (Q9Y5K5 whole entry, looked up): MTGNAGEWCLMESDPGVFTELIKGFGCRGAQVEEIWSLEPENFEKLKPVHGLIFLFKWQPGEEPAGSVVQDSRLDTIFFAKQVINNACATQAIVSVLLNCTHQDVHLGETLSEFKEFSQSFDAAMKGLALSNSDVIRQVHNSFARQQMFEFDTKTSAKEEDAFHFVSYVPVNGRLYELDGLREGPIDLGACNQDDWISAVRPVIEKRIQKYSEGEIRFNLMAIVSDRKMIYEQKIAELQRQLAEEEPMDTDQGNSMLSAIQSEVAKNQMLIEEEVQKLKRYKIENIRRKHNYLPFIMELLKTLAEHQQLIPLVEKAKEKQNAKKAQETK
#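 Material: Human UCH37 enzyme supplied as purified proteasome complex | Schedule: 30 min preincubation with enzyme, 25 min cleavage at room temperature | Detection: AMC fluorescence 355/460 nm | Measure: % inhibition of Ub-AMC cleavage fluorescence | Controls: Wells without proteasome as full block, compound-free enzyme plus substrate as uninhibited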
# E coli growth – inhibitors of Escherichia coli growth; AID 1053175; OD600 absorbance (test concentration not listed); actives 0.21% (n = 330,000); OD600, 23 h; stronger effect = lower value;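 active = OD600 absorbance below the run mean of sample wells minus 3.6 SD, in any replicate, cut at about 0.56 in these data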;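 also: stock transfer was 300 nL into about 60 µL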
# rRNA inh HTS OD600 – also measured in rRNA inh HTS; calls as there; OD600 change, %; measured here: OD600 growth;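 optical density of the mix in the first replicate; 0 = DMSO median and -100 = no signal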
# rRNA inh HTS RFP – second read-out of rRNA inh HTS, no call of its own (marks repeat the call); RFP signal change, %; measured here: RFP humanized mutant strains;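 first replicate; 0 = DMSO median and -100 = no signal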
# * = called active by the depositor; i = inactive; · = no result given; & = joins results of further samples. Some of the compounds tested. The share of hits here may be higher or lower than overall.
SMILES,Beta cell apopt,A1 inh,MLL AF4-AF9 inh,rRNA inh HTS,rRNA inh HTS OD600,rRNA inh HTS RFP,T cruzi inh,FGF22 binding,UCH37 inh,E coli growth
O=C(CCNS(=O)(=O)c1c(Cl)cccc1Cl)OCC(=O)c1ccccc1,-4,-0.6,2.8,-4,1,0.7,0,i,0.6,0.65
CC(=O)N1N=C(c2cccnc2)OC1c1ccc(C(C)C)cc1 (stereo not given),-3,-0.2,0.3,20,16,-0.4,-11,i,-1.6,0.74
COc1ccc2c(c1)C1CC(C)(NC(=O)C1C(=O)c1ccccc1)O2 (stereo not given),-5,0.4,·,·,·,·,-8,·,6.7,0.69
CCCCNC(=O)[C@H]1C[C@H]1[C@@H](O)[C@H](CO)NC(=O)[C@H](Cc1ccccc1)NC(=O)OC(C)(C)C,-2,0.3,-1.2,10,8,9.3,-1,i,3.0,·
CCC(=O)N1CCc2nc(-c3ccccc3)sc2C1,-4,-2.9,-1.3,-14,-8,-11,-11,i,-5.3,0.64
O=C(CCC1N=C2c3ccccc3N=C(SCc3ccc(F)cc3)N2C1=O)NCc1ccco1 (stereo not given),2,-0.1,·,·,·,·,9,·,-25,0.71
O=C(NC1CCCC1)C(c1ccccc1F)N(C(=O)c1csnn1)C1CC1 (stereo not given),-6,0.3,-3.4,-6,7,1.4,-2,i,2.9,0.63
CCOC(=O)c1c(O)c2ccccc2oc1=O,-5,0.0,-2.0,-10,-2,-2.4,3,i,1.0,0.67
COc1ccc(CNc2nc(SC)n[nH]2)cc1OC,-3,-0.2,·,·,·,·,-6,·,4.6,0.69
CCOC(=O)c1c2n(c3ccc(O)cc13)CCCCC2,-11,0.2,·,·,·,·,3,·,1.6,0.78
O=C(CON=C1c2ccccc2-c2ccccc21)NC12CC3CC(CC(C3)C1)C2,-9,-0.4,·,·,·,·,22,·,-0.8,0.74
Cc1cnc(NC(=O)CSc2nnc(-c3ccncc3)n2C2CCCCC2)s1,·,0.2,·,·,·,·,-3,·,-1.3,0.72
COc1ccc(OC)c(NC(=O)CN(Cc2ccc(Cl)cc2)S(C)(=O)=O)c1,1,0.8,1.6,2,2,-3.2,-19,·,7.1,0.64
COc1cc(C(=O)NNC(=O)c2ccc3c(c2)OCCO3)cc(OC)c1OC,0,1.2,-0.2,5,3,0.5,·,i,-7.1,0.67
CCc1ccccc1NC(=O)CNC(=O)CSC(=S)N1CCCC1,-8,-0.7,0.7,7,11,1.6,·,i,2.0,0.68
COC(=O)c1cc(NC(=O)Nc2ccccc2)ccc1Cl,4,-1.9,10,-34,-50,-15,6,i,3.9,0.59
O=C(CSc1ncn[nH]1)NCCc1ccc(Cl)cc1,-6,0.4,-2.7,6,3,2.5,-8,i,2.5,0.69
CC(=O)n1cc([C@H]2C=C(C(=O)N3CCN(Cc4ccc5c(c4)OCO5)CC3)O[C@@H](OCc3ccc(CO)cc3)C2)c2ccccc21,28,-0.4,0.2&-1.6,-7,-8,8.1,56*,i,-3.2,·
Cc1cccc(-n2c(SCC(N)=O)nnc2-c2ccccn2)c1C,10,0.8,·,·,·,·,-8,·,3.4,0.72
Cc1cc(C)nc(NC(=O)c2cc(Br)ccc2Cl)n1,-4,0.7,-2.2,3,1,0.5,-9,·,0.2,0.7
Cc1cc(N2CCN(S(=O)(=O)c3ccc4c(c3)OCCO4)CC2)n2ncnc2n1,-3,0.3,·,·,·,·,-4,·,1.7,0.63
O=C(OCC(=O)N1CCCC1=O)c1ncc(Cl)c(Cl)c1Cl,-3,0.8,-0.6,0,4,0.3,-25,·,4.5,0.68
COC(=O)c1ccc2c(=O)n(CCN3CCOCC3)c(SCC(=O)Nc3ccc(OC)cc3OC)nc2c1,-10,-0.9,-1.4,11,5,2.4,-14,i,4.1,0.7
CCCc1cc(-c2ccc3c(c2)COc2c4ccccc4nn2-3)on1,8,-7.8,-5.1,-12,-7,0.5,11,i,-4.8,0.71

# Three compounds out of the list, ordered by heavy-atom count, lowest first.
SMILES,Beta cell apopt,A1 inh,MLL AF4-AF9 inh,rRNA inh HTS,rRNA inh HTS OD600,rRNA inh HTS RFP,T cruzi inh,FGF22 binding,UCH37 inh,E coli growth
COc1ccc(CNc2nc(SC)n[nH]2)cc1OC,-3,-0.2,·,·,·,·,-6,·,4.6,0.69
Cc1cccc(-n2c(SCC(N)=O)nnc2-c2ccccn2)c1C,10,0.8,·,·,·,·,-8,·,3.4,0.72
O=C(CCNS(=O)(=O)c1c(Cl)cccc1Cl)OCC(=O)c1ccccc1,-4,-0.6,2.8,-4,1,0.7,0,i,0.6,0.65

# Remaining list, next part
SMILES,Beta cell apopt,A1 inh,MLL AF4-AF9 inh,rRNA inh HTS,rRNA inh HTS OD600,rRNA inh HTS RFP,T cruzi inh,FGF22 binding,UCH37 inh,E coli growth
COc1ccc(C(=O)Nc2ccc(Cl)cc2C(=O)NCc2ccco2)cc1OC,5,0.5,·,·,·,·,20,·,0.2,0.71
COc1cc(CNC2CCCc3ccccc32)cc(OC)c1OC (stereo not given),-2,0.4,6.3,5,13,-6.1,-19,i,-0.7,0.71
O=S(=O)(Nc1ccc(-c2cn3c(n2)SCC3)cc1)c1cccs1,-11,0.5,1.5,5,4,12,4,i,2.4,0.71
CCCCNC(=O)C1CCC(CNS(=O)(=O)c2ccc(C)cc2)CC1 (stereo not given),0,0.0,-14,3,10,-2.5,5,·,2.4,0.66
CC(C)C(NC(=O)/C=C/c1cccc([N+](=O)[O-])c1)C(C)C,1,0.0,1.3,8,12,0.4,-1,i,3.6,0.72
CN(C(=O)COC(=O)c1ccc([N+](=O)[O-])cc1)c1ccccc1,0,0.9,0.2,9,3,-8.7,-4,i,-1.1,0.69
CC1CC(C)CN(C(=O)CCNS(=O)(=O)c2cccs2)C1 (stereo not given),4,0.0,-2.4,-3,-2,-7.6,-4,i,0.4,0.64
CN(Cc1ccccc1)C(=O)c1cccc(NC(=O)Cc2ccc(NC(=O)C3CCN(C(=O)c4ccccc4)CC3)cc2)c1,·,·,2.7,-3,-8,1.6,·,i,0.0,0.69
CC(C)C(=O)Nc1nc(-c2ccc3c(c2)CCN3C(=O)C2CC2)cs1,-2,-0.5,-3.7,-7,-6,-0.2,7,i,4.4,0.67
Cn1c(Nn2cnnc2)nc2ccccc21,-9,0.1,·,·,·,·,-10,·,-1.0,0.75
Cn1cc(Br)c(-c2cccc(NC(=O)CC(C)(C)CC(=O)O)c2)n1,·,-1.0,-0.7,-2,2,-0.4,-16,i,5.9,0.65
COc1ccc(N2CCN(C(=O)c3ccccc3NS(=O)(=O)c3ccccc3)CC2)cc1,-12,0.3,0.9,-19,-16,-2.6,7,i,1.6,0.69
CCCn1c(=O)c(C(=O)NCCc2ccccc2)c(O)c2ccccc21,2,-1.0,0.6,8,12,-2.6,-6,i,5.3,0.7
O=C(O)/C=C/C(=O)Nc1ccc(SC(F)(F)C(F)(F)C(F)(F)F)cc1,-1,-0.4,-0.3,-7,-7,-0.8,11,i,0.8,0.67
COc1ncnc2c1N=C1CC(C)(C)CC(N)=C1S2,1,-0.7,·,·,·,·,9,·,11,0.74
Cc1cc(C)nc(NC(=O)c2ccc(Cl)cc2[N+](=O)[O-])c1,-4,1.4,·,·,·,·,-12,·,-0.4,0.63
COCCCNC(=O)CCCOc1ccccc1,-4,-1.0,8.7,12,2,-2.6,-8,i,-1.4,0.71
CCOC(=O)C[C@H]1c2ccccc2S(=O)(=O)N1Cc1ccc(Cl)cc1,1,0.3,-0.9,-10,-13,-1.9,-7,i,-0.6,·
COc1ccc(NS(=O)(=O)c2ccc(C)c(C(=O)N3CCN(Cc4cc(OC)ccc4OC)CC3)c2)cc1,·,·,35*,-1,-13,2.4,·,i,0.7,0.69
O=C(Cc1ccccc1)NNC(=S)NC(=O)c1cccs1,12,0.3,-4.1,-38,-70,-5.9,30,i,0.1,0.45*
O=C(/C=C/c1ccccc1)NNC(=O)c1cccnc1,0,-0.2,·,·,·,·,12,·,6.7,0.68
COc1ccc(C(=O)NCc2cccnc2)cc1,-11,-0.2,-6.2,·,·,·,-12,·,0.7,0.73
Cc1csc2nc(SCC(=O)N3CCN(c4ccccc4)CC3)[nH]c(=O)c12,1,0.3,-1.6,0,1,-0.7,2,i,0.3,0.68
Cc1ccc(OCC(=O)Nc2ccc(N3CCN(S(C)(=O)=O)CC3)cc2)cc1C,-5,0.7,0.0,12,4,-5.4,-14,i,1.8,0.69
NC(=O)C1CCN(C(=O)COc2cccc3cccnc23)CC1,-3,0.9,-0.5,15,15,-1.2,2,i,3.5,0.68
CCOC(=O)Cn1c(C)[n+](CC(=O)c2ccccc2)c2ccccc21,0,-0.2,·,1,4,1.2,10,i,5.8,0.65
COc1ccc(-c2cc(C(=O)NCCN3CCOCC3)c3cc(C(C)C)ccc3n2)cc1,11,0.7,-1.9,2,6,1.2,26,i,i,0.71
CCC(=O)Nc1ccc(C(=O)n2nc(C)cc2C)cc1,-6,2.3,·,·,·,·,-6,·,3.1,0.69
CCOC(=O)c1c(NC(=O)C2C3C=CC(C3)C2(C)C(=O)O)sc2c1CCCC2 (stereo not given),-12,0.1,·,·,·,·,-9,·,-6.5,0.68
Cc1cccc(OCc2nnc(SCC(=O)Nc3nccs3)o2)c1,·,0.1,-4.0,-41*,-24*,-10*,-21,i,1.0,0.66
CC(C)CN(c1ccccc1)S(=O)(=O)c1nnc(NC(=O)C(C)C)s1,4,0.3,-3.1,8,17,-0.9,-15,i,6.5,0.68
COc1ccc(Cl)cc1S(=O)(=O)N(C)CC(=O)NCCCn1ccnc1,3,-0.2,-2.7,2,-8,-3.3,7,i,2.3,0.65
COc1cccc(/C=N/NC(=O)C(=O)N2CCCC2)c1,-4,0.1,-1.3,-1,3,-3.7,-14,i,·,·
O=C(COC(=O)COc1ccccc1)NC1CCS(=O)(=O)C1 (stereo not given),0,-1.3,-0.7,3,10,5.3,·,i,5.5,0.68
CC1(C(=O)N2CCOCC2)CCCCC1,·,1.2,-9.2,3,4,-2.1,-11,i,3.6,0.7
CC(C)OC(=O)CSc1nc2c(c(C3CC=CCC3)c1C#N)CCC2 (stereo not given),-11,0.7,-0.2,-22,-18,-12,32,i,0.6,0.66
CCOc1ccc(NC(=O)COC(=O)C2CC2C)cc1 (stereo not given),4,-2.3,4.2,13,19,2.0,·,i,0.6,0.71
COc1ccc(S(=O)(=O)N(C)CC(=O)NCCCn2ccnc2)cc1Cl,-4,0.1,0.6,7,11,-1.4,-1,i,2.8,0.64
Cc1ccc(C(=O)CC2(O)C(=O)N(Cc3ccccc3)c3ccccc32)o1 (stereo not given),-4,-0.5,·,·,·,·,-3,·,-1.6,0.76
Cc1ccc(C2=NS(=O)(=O)N(C)C(C(=O)N(C)C3CCCCC3)=C2)cc1,6,-0.1,4.1,-10,-28,-1.3,2,i,2.0,0.71
CCOC(=O)N1CCN(c2cc3nccnc3cc2F)CC1,4,-0.6,·,·,·,·,-4,·,0.6,0.69
COC(=O)C(Cc1c[nH]c2ccccc12)NC(=O)c1cccc(S(=O)(=O)N2CCCCC2)c1 (stereo not given),-7,-0.9,-3.5,-14,-15,2.0,·,i,1.4,0.7
